AID504770: growth inhibition of E. coli YBA685, primary screen, V. cholerae RctB inhibitors. 130,000 compounds, 0.27% hits. E. coli YBA685 rctB-dependent plasmid, OD600 growth, 3 h; active compounds read low. z-score (test concentration not listed). AID 504770, 2011;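 active = z-score under -2 on both plates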;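 note: wells of about 30 µL received 100 nL stock; score is relative to mean and SD of the test wells; the first replicate is given; strong numbers were not always called active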
Ba CapD inh: Bacillus anthracis CapD inhibitors, primary screen, biochemical, fluorescence intensity | CapD gamma-glutamyltranspeptidase (Bacillus anthracis Ames Ancestor) | purified CapD enzyme, fluorescence intensity read-out; active compounds read low; some hits fall short of the stated cut | z-score (concentration not given with the values) | 140,000 compounds, 0.23% hits;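 active = z-score under -4 in either of two replicates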;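 note: stock transfer was 100 nL into about 40 µL; score is relative to mean and spread of the plate; one replicate is shown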
An asterisk follows results filed as active; i = inactive; x = not tested or not shown; & = joins results of further samples. Only part of the results is shown; rates above refer to the full screens.

SMILES	AID504770	Ba CapD inh
CSc1nc2ccc(NC(=O)C3CCCCC3)cc2s1	-0.3	i
O=C(CSc1nc(NCC2CCCO2)c2ccccc2n1)NCc1ccccc1 (stereo not drawn)	x	2.88
O=C(NCc1ccco1)c1nc(-c2cccc(F)c2)n2c1CCCCC2	0.1	0.17
COc1ccc(CN(C)C(=O)c2cnc(OC)cc2C(F)(F)F)c(OC)c1	-0.2	-0.08
CCOC(=O)N1CCC(=NNc2nc3ccccc3[nH]2)CC1	0.15	x
CCOC(=O)c1cnc2ccc([N+](=O)[O-])cc2c1Nc1ccccc1F	x	-1.6
O=C(COc1nsnc1N1CCOCC1)c1ccccc1	0.35	0.89
Cc1ccc(C(=O)/C=C2/CC(c3ccccc3)NCCN2)c(O)c1 (stereo not drawn)	-0.65	-2.85
CCn1cc(C(=O)O)c(=O)c2cc(F)c(NN3C(=O)CSC3c3ccccc3Cl)cc21 (stereo not drawn)	-1.5	4.18
Nc1cc(N)nc(SCC(=O)c2ccccc2)n1	-0.55	x
O/N=C/c1ccccc1Br	-0.8	x
C=CCN=C1SC(CC)C(=O)N1S(=O)(=O)c1ccc(C)cc1 (stereo not drawn)	-1.3	-0.505
COC(=O)C1=NNC2C(=O)N(c3cccc(C)c3C)C(=O)C12 (stereo not drawn)	x	-0.595
FC(F)Oc1ccc(-c2cn3c(n2)sc2ccccc23)cc1	0.35	x
c1ccc2c(OCCOc3cccc4ccccc34)cccc2c1	x	-0.01
CCN1CCN(Cc2c(O)ccc3c(=O)c(-c4ccc(Cl)cc4)c(C(F)(F)F)oc23)CC1	x	-0.265
CCCCCCNS(=O)(=O)c1ccc(CCC)cc1	x	-0.565
NCCc1cnn(-c2ccccc2)c1	2.15	x
CCCN(CCC)Cc1c(C(=O)N/N=C/c2ccoc2)nnn1-c1nonc1N	2.65	-0.95
O=C(CCN1C(=O)/C(=C/c2ccc3c(c2)OCO3)SC1=S)NC1=NCCS1	x	-0.745

Four of the compounds above, as labelled records:
> CCOC(=O)N1CCC(=NNc2nc3ccccc3[nH]2)CC1
  AID504770: 0.15	Ba CapD inh: x

> O=C(CSc1nc(NCC2CCCO2)c2ccccc2n1)NCc1ccccc1 (stereo not drawn)
  AID504770: x	Ba CapD inh: 2.88

> O=C(CCN1C(=O)/C(=C/c2ccc3c(c2)OCO3)SC1=S)NC1=NCCS1
  AID504770: x	Ba CapD inh: -0.745

> CSc1nc2ccc(NC(=O)C3CCCCC3)cc2s1
  AID504770: -0.3	Ba CapD inh: i

(listing goes on)
SMILES	AID504770	Ba CapD inh
Cc1noc(C)c1COC(=O)c1cccc(S(=O)(=O)N2CCCCC2)c1	-0.9	x
Cc1ccc(C2NC(C(=O)O)Cc3c2[nH]c2ccccc32)cc1 (stereo not drawn)	x	0.34
CNC(=O)CN1C(=O)/C(=C/c2ccccc2C)Sc2ccccc21	0	0.025
CCCCn1c(O)c(N=NC(=O)COc2ccccc2C)c2cc(OC)ccc21	1.1	x
Cc1cc(C(F)F)n2ncc(C(=O)NCc3ccccc3)c2n1	-0.75	x
O=C(O)CN1C(=O)/C(=C\c2ccc(OCc3ccccc3)cc2)SC1=S	x	-2.09
Cc1ccc(CNC(=S)NCCCn2nccc2C)cc1	0.2	0.135
CC(C(=O)Nc1ccccc1)N1CCCCC1 (stereo not drawn)	-0.8	x
O=S(=O)(c1ccc(Cl)cc1)C(F)(F)C(F)(F)C(F)(F)F	-0.3	x
Clc1cccc(-c2cnc(SCc3ccc(Cl)c(Cl)c3)nc2)c1	x	-0.61
O=C(COC(=O)C1CCN(C(=O)c2ccc(Cl)cc2)CC1)Nc1cccc2nsnc12	-1.45	x
COc1ccc(F)cc1C(O)CSCc1ccccc1 (stereo not drawn)	-0.4	x
N/C(CS(=O)(=O)c1ccc(F)cc1)=N\O	x	-0.57
COc1cccc(/C=C2\SC(=S)N(C(Cc3ccccc3)C(=O)O)C2=O)c1 (stereo not drawn)	-1	1.11
CCN(c1ccc2oc3ccccc3c2c1)S(=O)(=O)c1ccccc1C#N	1.35	x
Cc1cccc(-c2noc(CCCC(=O)NC3CCCCC3)n2)c1	4.25	-1.95
COc1ccc(CCN(C)C(=S)NN)cc1OC	-1.1	-0.125
Cc1cc(-n2c(C)cc(/C=C/C(=O)O)c2C)no1	-1.1	x
COc1cccc(OC)c1OC(=O)c1cccc(S(=O)(=O)N(C)OC)c1	-0.35	x
CC1CCCN(C(c2ccc(F)cc2)c2c(O)[nH]c(=O)[nH]c2=O)C1 (stereo not drawn)	-0.95	-0.51
COCCn1cnnc1SCC(=O)Nc1ccc(N2CCCCC2)cc1	-0.6	x
CCN1CCC(N(Cc2ccc(F)cc2)C(=O)Nc2cc(C)ccc2OC)CC1	0.1	-0.11
COc1ccc(CNC(=O)c2ccc[nH]2)cc1	0.75	0.66
O=C(O)c1n[nH]c(=O)c2ccccc12	x	-0.32
O=C(NC1CCCC1)c1cnc2n(c1=O)CCS2	-2.75	0.11
CCOC(=O)CSc1nc2sc(C(=O)OCC)c(C)c2c(=O)n1Cc1ccc(OC)cc1	x	-0.315
CC1(C)CC(=NNC(=O)CC#N)CC(C)(C)N1	-0.15	0.35
CCN(CC)c1ccc(/C=C2\CCc3ccccc3C2=O)cc1	0.05	-0.01
O=C(COC(=O)c1cncc(Br)c1)Nc1ccc(N2CCCCC2)cc1	0.4	x
C(=N\n1c(-c2ccco2)csc1=Nc1cccnc1)/c1ccccn1	1.8	x
CCOc1cc(C#N)c(NC(=O)c2ccc(OC)cc2)cc1OCC	0.15	39
COc1ccc(C2NN(CN3CCOCC3)C(=S)N2Cc2ccccc2)cc1 (stereo not drawn)	-2.1	0.58
C=CCn1c(SCC(=O)c2ccc3cc[nH]c3c2)nnc1-c1cccnc1	-1.15	0.1
CCn1c(C(Cc2ccccc2)NC(=O)COC)nc2ccccc21 (stereo not drawn)	-0.95	-0.455
Cc1cc2oc(=O)cc(CN(C)C3CCS(=O)(=O)C3)c2cc1C(C)C (stereo not drawn)	1.85	x
C=CCn1c(=S)[nH]c2c(OC)c(OC)c(OC)cc2c1=O	x	0.09
S=C(NCc1cccnc1)SCc1cc(Cl)sc1Cl	-0.95	0.445
CC1=C(C(=O)Nc2ccc(F)cc2)C(c2ccc(N3CCOCC3)cc2)C2=C(CCCC2=O)N1 (stereo not drawn)	-0.35	1.75
N#CCC(=O)Nc1ccc(C(=O)OCC(=O)N2CCN(c3ccccc3)CC2)cc1	-0.15	x
Clc1ccc(CSC2=NCCCN2)cc1	x	0.205

Among those listed so far, these have a cyano group:
SMILES	AID504770	Ba CapD inh
CCN(c1ccc2oc3ccccc3c2c1)S(=O)(=O)c1ccccc1C#N	1.35	x
CC1(C)CC(=NNC(=O)CC#N)CC(C)(C)N1	-0.15	0.35
CCOc1cc(C#N)c(NC(=O)c2ccc(OC)cc2)cc1OCC	0.15	39
N#CCC(=O)Nc1ccc(C(=O)OCC(=O)N2CCN(c3ccccc3)CC2)cc1	-0.15	x

Further records follow:
SMILES	AID504770	Ba CapD inh
O=C(NCCCN1CCN(Cc2ccccc2)CC1)c1nnc(Cc2ccc(F)cc2)o1	0.45	-0.145
COCCn1c(SCC(=O)OC2CCCCC2)nnc1-c1ccco1	-0.15	x
CCn1c(SCc2nc(-c3cccs3)no2)nnc1-c1ccncc1	-0.85	-0.23
S=C(c1c[nH]c2ccccc12)N1CCCCC1	-0.2	-0.415
NC(=O)NC1(C(F)(F)F)Oc2ccccc2O1	-0.25	x
NC(=S)N/N=C/c1c(Sc2ccc(Cl)cc2)nc2sccn12	-0.15	1.82
N#Cc1ccccc1-n1ccc2ccccc21	0.1	3.46
O=C(CC1SC(=O)NC1=O)Nc1ccc(Cl)cc1 (stereo not drawn)	x	-0.005
O=C(COC(=O)Cc1cccc(C(F)(F)F)c1)Nc1ccc2[nH]c(=O)[nH]c2c1	0.4	x
COc1ccc(CCNc2ncnc3[nH]ncc23)cc1OC	1.45	x
N#Cc1ccc(-c2ccncc2)nc1SCC(=O)Nc1nc2ccccc2s1	x	0.17
O=C(Oc1ccc2c3c(c(=O)oc2c1)CCCC3)c1ccccc1	2.45	0.77
COc1ccc(C(=O)OCC#N)cc1S(=O)(=O)N1CCN(c2cccc(Cl)c2)CC1	-1.25	x
CC1=C(C#N)C(=O)N(C)C(=O)/C1=C/c1ccc(-c2ccc(Cl)cc2)o1	2.05	-0.685
O=C1C=C(Nc2ccccc2Br)CCC1	0.25	-0.765
COC(=O)c1ccccc1Oc1nc(C)cc(C)n1	x	0.065
Cc1onc(-c2ccccc2Cl)c1C(=O)N(CCC#N)C(C)C	x	0.435
Cc1ccc(S(=O)(=O)NC(=O)N2CCC(C)CC2)cc1	-1.4	0.385
CCOC(=O)c1c(-c2cccs2)csc1NC(=O)C1CC=CCC1C(=O)O (stereo not drawn)	0.15	x
Cc1ccc2c(c1)NC(C(F)(F)F)(C(F)(F)F)NC2=O	-0.35	-0.58
Cc1nccc2[nH]c(=O)c(C(=O)NC(C)CCc3ccccc3)cc12 (stereo not drawn)	-0.7	0.92
CCOc1ccc(OCC)c(NC(=O)C2(S(=O)(=O)c3ccc(Cl)cc3)CC2)c1	-1	-0.58
Cc1cccc2c1-c1sc(C(=O)N(CCN(C)C)Cc3ccco3)cc1CO2	-0.75	82.7
N#CCc1ccc(NC(=O)CCCC(=O)O)cc1	0.95	1.02
CCOC(=O)C1CC/C(=C\c2ccccc2)C1=O (stereo not drawn)	x	0.07
CCCn1c(=O)n(C)c(=O)c2c(SCC(=O)NCC3CCCO3)nc(C(C)(C)C)nc21 (stereo not drawn)	-0.75	x
Cc1ccccc1NC(=O)CC(C(=O)O)N(C)C (stereo not drawn)	-0.15	1.58
C=CCSc1nc2c(c(=O)[nH]1)C(c1ccccc1)C1=C(CCCC1=O)N2 (stereo not drawn)	-0.7	x
COc1ccc(C(NC(=O)c2ccccc2)c2ccc3cccnc3c2O)cc1 (stereo not drawn)	-0.05	-0.445
C=CCNC(=O)C1CC(=O)N(c2ccc(OCC(=O)N3CCCC3)cc2)C1 (stereo not drawn)	-0.6	0.395
Cc1ccccc1NC(=O)Cn1nnc2ccccc21	-0.9	0.28
NC(=O)N/N=C1/C=C(c2ccccc2)C(O)(c2ccccc2)C1 (stereo not drawn)	0.2	x
CCOC(=O)C1=C(CSc2nc3c(c(-c4cccs4)c2C#N)CCCC3)OC(N)=C(C#N)C1c1ccc(Cl)cc1 (stereo not drawn)	x	-0.465
COC(=O)c1ccc(CSc2ccc3nnc(-c4ccccc4)n3n2)o1	2.25	0.825
CCOc1ccc(NC(=O)CC2C(=O)NCCN2C(=O)c2ccccc2)cc1 (stereo not drawn)	-0.7	0.52
CC(=O)c1sc(C(C)(C)C)cc1N	x	1.05
COc1ccc(/C=C2\C=C(c3ccccc3)N(c3ccc(N(C)C)cc3)C2=O)cc1Br	x	-0.545
CCOC(=O)N1CCC(NC(=O)Cn2ncc3c(=O)oc4ccccc4c32)CC1	-0.7	-0.045
Cc1nnc(SCCCn2c(N3CC(C)OC(C)C3)nc3c2c(=O)[nH]c(=O)n3C)s1 (stereo not drawn)	1.95	x
N#C/C(=C/c1ccc2c(c1)OCO2)c1ccc(Cl)cc1Cl	0.4	5.62

2 records picked at random from the list so far, as already listed:
SMILES	AID504770	Ba CapD inh
Cc1nccc2[nH]c(=O)c(C(=O)NC(C)CCc3ccccc3)cc12 (stereo not drawn)	-0.7	0.92
NC(=O)N/N=C1/C=C(c2ccccc2)C(O)(c2ccccc2)C1 (stereo not drawn)	0.2	x

Following part
SMILES	AID504770	Ba CapD inh
Cc1cc(=O)oc2c3c(ccc12)OCN(c1ccc(Cl)cc1)C3	x	23.3
CCCCC(CC)CSc1nc2ncccc2[nH]1 (stereo not drawn)	-0.8	3.44
CCc1ccc(NC(=O)CN(c2ccc(C)cc2)S(=O)(=O)c2cccc3nonc23)cc1	-0.65	-0.83
CCCCCC1CC(CC(=O)Nc2nncs2)C(=O)O1 (stereo not drawn)	0.9	x
C/C(N)=C(/C#N)C(=O)CSc1nc(C)cs1	-0.2	x
CCOC(=O)Cc1csc2nc3sc4c(c3c(=O)n12)CCCC4	1.65	x
Cc1noc(C)c1CSc1ncccc1C(=O)Nc1ccc2c(c1)OCCO2	1.4	x
NNC(=O)c1ccc2c(=O)[nH][nH]c(=O)c2c1	1.6	-1.89
N#Cc1cc2c(nc1SCC(=O)Nc1ccc(F)cc1)CCCC2=O	-0.2	0.335
O=c1ccnc(SCc2cn3ccccc3n2)[nH]1	-1.55	x
C#CCn1nnc(-c2cc(C(F)(F)F)cc(C(F)(F)F)c2)n1	-0.7	0.26
Cc1ccc(S(=O)(=O)NCCSc2ncccn2)cc1	0.05&1.2	-0.425&0.545
Cc1nc(C(N)=O)c(N)n1CCO	1.1	0.58
Cc1ccc(NC(=O)Cn2cnc3sc(C(=O)N4CCN(c5ccccc5)CC4)c(C)c3c2=O)cc1Cl	x	0.415
CN1CCN(Cn2c(=S)oc3ccccc32)CC1	-0.85	x
CNc1ccc2oc(C[C@@H]3OC4(CC[C@@H]3C)O[C@H](C(C)C(=O)c3ccc[nH]3)[C@H](C)C[C@H]4C)nc2c1C(=O)O (stereo partly drawn)	x	-0.955
COC(=O)c1cccc(C(=O)Oc2ccc(F)cc2)n1	-0.65	-0.025
CC(C)S(=O)(=O)c1csc(C(=O)O)c1	-0.9	-0.16
COc1ccc(-c2[nH]nc3c2C(c2cc(OC)c(OC(=O)N4CCOCC4)c(OC)c2)C(C#N)=C(N)O3)cc1 (stereo not drawn)	x	-0.145
CCc1ccccc1Nc1nc2ccccc2[nH]1	-1	0.66

Source: PubChem BioAssay (ICCB-Longwood Screening Facility, Harvard Medical School)
